ClpP mod = qHTS Assay for Activators of ClpP. purified B. subtilis ClpP, FRET peptide cleavage, 20 min. Potency, µM (highest dose often 57.5 µM), for the others: top-dose activity change, negative = active. 340,000 compounds, 1.9% hits; active = well fitted falling curve with a large enough effect; inconclusive = small, poorly fitted or top-dose-only effect; inactive = no such curve, though single readings can be large or run the other way; note: the source files actives as falling curves though it sought activators and does not explain the sign; nearly all actives have a fitted effect of over 65% in size; many hits overshoot -100%
Target sequence (P80244 whole entry, looked up): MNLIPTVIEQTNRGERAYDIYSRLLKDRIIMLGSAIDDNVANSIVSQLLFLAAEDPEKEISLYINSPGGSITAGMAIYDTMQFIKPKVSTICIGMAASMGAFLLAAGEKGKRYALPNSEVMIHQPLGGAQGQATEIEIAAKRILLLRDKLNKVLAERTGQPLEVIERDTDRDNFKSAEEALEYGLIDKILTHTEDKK
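Buffer: 100 mM Tris/HCl pH8, 100 mM KCl, 0.05% low protease BSA, 2.5% glycerol, 0.01% Tween-20. ClpP 10 microg/mL final; 20 min RT; delta FRET normalized to ADEP and DMSO controls.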
PINK1 expr mod = PINK1 expression modulation. PINK1 immunofluorescence, high-content cytometry, 24 h. Potency, µM (highest dose often 76.6 µM), for inactives: at the highest dose activation (PINK1 increase), hits mostly activators. 410,000 compounds, 0.2% hits. AID 624263; active = well fitted activation curve with a large enough effect; inconclusive = small, poorly fitted or top-dose-only effect; inactive = flat fitted curve, though single readings scatter; cell line not stated here;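 note: % of control where 0% means no effect; nearly all actives have a fitted effect of over 65% in size; a mitochondrial uncoupler was the plate control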
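Stable cell line treated 24 h with compounds at 5 concentrations (CCCP controls), then fixed and immunostained for PINK1 plus nuclear and cell stains; PINK1 immunofluorescence quantified by laser-scanning microplate cytometry.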
Numbers without * were called inactive; ? = inconclusive. Potency is the fitted concentration of half-maximal effect. Only part of the results is shown. The share of hits here may be higher or lower than overall.

entry	Molecule	ClpP mod	PINK1 expr mod
1	O=C(Nc1ccc(F)cc1)N1CCN(C(=O)c2nsc3ccccc23)CC1	-4.0%	-1.6%
2	COc1ccc(Cl)cc1NC(=O)c1nn(-c2ccc(C)cc2)c(=O)n(C)c1=O	0.9%	-0.6%
3	Cc1ccc(-c2nnc(Nc3ccc(O)cc3)c3ccccc23)cc1S(=O)(=O)NCc1nc2ccccc2[nH]1	-0.3%	9.2%
4	CCOc1ccc(C(=O)Cn2c(=O)n3nc(CCn4nc(C)cc4C)nc3c3cc(OC)c(OC)cc32)cc1	-8.1%	-0.7%
5	Cc1cc(OCC(=O)Nc2sc3c(c2C(N)=O)CCCC3)ccc1C(C)C	-0.7%	0.1%
6	COc1ccc(Cl)cc1N(C)C(=O)Cn1cnc2sc(C)c(S(=O)(=O)N3CCN(c4ncccn4)CC3)c2c1=O	-12%	1.4%
7	COc1ccccc1/C=C/c1nc2ccccc2n1C(C)C	4.1%	3.5%
8	CC(C)CCN1C(=O)N(c2ccccc2)C(=O)C1CC(=O)Nc1ccc(Cl)cc1 (stereo not given)	-1.0%	0.0%
9	CCOC(=O)c1cccc(NC(=O)CC2C(=O)N(c3ccc(Cl)cc3)C(=O)N2C2CCCC2)c1 (stereo not given)	-3.4%	1.0%
10	CCOC(=O)c1c(S(=O)(=O)N2CCC(C(=O)N3CCN(c4cccc(C)c4C)CC3)CC2)c(C)n(C)c1C	0.3%	0.2%
11	COc1ccc(OC)c(CNC(=O)c2cc3c(Cl)nc4ccccc4c3s2)c1	-28%	-0.1%
12	CCOC(=O)c1cc2cc(OC)ccc2n1C1CCN(C)CC1	4.6%	-0.7%
13	CCOc1ccc(-n2cc(C(=O)Nc3ccccc3OCC)c3cc(OC)c(OC)cc3c2=O)cc1	-2.7%	-0.5%
14	Cc1cc(C)n2c(NC3CCCC3)c(-c3ccc(F)cc3)nc2n1	-2.1%	0.0%
15	CCc1nnc2c(NCc3ccccc3OC)nc3ccccc3n12	-6.1%	1.4%

6 entries from above, screen by screen.
9. CCOC(=O)c1cccc(NC(=O)CC2C(=O)N(c3ccc(Cl)cc3)C(=O)N2C2CCCC2)c1 (stereo not given)
14. Cc1cc(C)n2c(NC3CCCC3)c(-c3ccc(F)cc3)nc2n1
6. COc1ccc(Cl)cc1N(C)C(=O)Cn1cnc2sc(C)c(S(=O)(=O)N3CCN(c4ncccn4)CC3)c2c1=O
5. Cc1cc(OCC(=O)Nc2sc3c(c2C(N)=O)CCCC3)ccc1C(C)C
15. CCc1nnc2c(NCc3ccccc3OC)nc3ccccc3n12
1. O=C(Nc1ccc(F)cc1)N1CCN(C(=O)c2nsc3ccccc23)CC1

compound no.	9	14	6	5	15	1
ClpP mod	-3.4%	-2.1%	-12%	-0.7%	-6.1%	-4.0%
PINK1 expr mod	1.0%	0.0%	1.4%	0.1%	1.4%	-1.6%

Following part
entry	Molecule	ClpP mod	PINK1 expr mod
16	CCc1ccc(-c2nc(SCC(=O)NCC3CCCO3)c(-c3ccc(F)cc3)[nH]2)cc1 (stereo not given)	?	0.6%
17	CCOc1ccc(NC(=O)c2cn(C3CCCCC3)c(=O)c3c2c2ccccc2n3C)cc1	?	-0.2%
18	COc1cc2c(cc1OC)C(COc1ccc3c(C)cc(=O)oc3c1)N(C(=O)Cc1ccc(F)cc1)CC2 (stereo not given)	0.4%	0.3%
19	COc1ccc(NC(=O)C(CC(C)C)NC(=O)C2CCCCC2)cc1 (stereo not given)	-3.5%	0.5%
20	Oc1ccccc1-c1nc(-c2cccs2)c(-c2cccs2)[nH]1	14µM*	1.4%
21	Cc1ccc2nc(CO)[nH]c2c1	1.4%	-0.1%
22	N#Cc1c(NC(=S)NC(=O)c2ccccc2)sc2c1CCCCC2	-0.1%	2.0%
23	COc1ccc(CNC(=O)Cn2ncc3c(=O)oc4ccccc4c32)c(OC)c1	0.2%	0.2%
24	COc1ccc(C(=O)N2CCC(C(=O)Nc3ccc(OC)cc3OC)CC2)cc1	-1.1%	0.3%
25	Cc1ccc(N(CC(=O)NCCSc2ccccc2)S(=O)(=O)c2ccc(F)cc2)cc1	4.7%	4.5%
26	CCc1ccc(NC(=O)c2oc3c(c2C)-c2[nH]ncc2CC3)cc1	-14%	0.1%
27	CCOC(=O)c1nc(N2CCN(c3ccc(F)cc3)CC2)c2c(C)noc2n1	-0.2%	0.1%
28	CCCCSc1nnc2c(n1)OC(c1ccc(C)s1)Nc1ccccc1-2 (stereo not given)	-3.2%	0.5%
29	CCCn1c2ccccc2c2cnn(CC(=O)NCCc3ccc(OC)cc3OC)c(=O)c21	0.6%	0.9%
30	CCn1c(C)c(C)c2cc(C(=O)NCC(C)c3ccccc3)ccc21 (stereo not given)	-9.2%	-0.2%
31	CCN(C(=O)CSc1nc2ccccc2n1CC(=O)Nc1ccccc1C)c1ccccc1	0.4%	0.3%
32	O=C(Nc1cccc(Cl)c1Cl)c1cc2nc(-c3ccc4c(c3)OCO4)cc(C(F)(F)F)n2n1	-0.7%	2.5%
33	COc1cccc(CNC(=O)c2ccc3c(Cl)c4c(nc3c2)CCCC4)c1	-20%	-0.7%
34	COc1ccccc1CNC(=O)CCn1c(=O)c2ccccc2n(CC(=O)Nc2ccc(C)cc2)c1=O	?	7.5%
35	Cc1c2cnn(CC(=O)N3CCCCC3)c(=O)c2c(C)n1Cc1ccc(Cl)cc1	-26%	0.4%
36	CCOC(=O)c1c(NC(=O)c2cc(-c3ccccc3)on2)sc2c1CCCC2	-0.2%	2.1%
37	CC1CCCN(S(=O)(=O)c2ccc3c(c2)CCN3C(=O)CCC(=O)O)C1 (stereo not given)	-1.3%	-0.9%
38	Cn1c(-n2cccc2)c(-c2c(-c3ccc(F)cc3)[nH]c3c2c(=O)n(C)c(=O)n3C)c(=O)n(C)c1=O	0.2%	2.5%
39	COc1cc(C)ccc1OCCSc1nc2ccc(NC(=O)c3ccco3)cc2s1	?	1.1%
40	Cc1ccc(S(=O)(=O)Nc2cccc(-c3ccc(N4CCC(C)CC4)nn3)c2)s1	-3.7%	2.1%
41	Cc1ccn2c(NC3CCCCC3)c(-c3ccc(C)o3)nc2c1	-20%	2.3%
42	CCOc1ccc(NC(=O)CSc2nc3ccsc3c(=O)n2C(C)CC)cc1 (stereo not given)	0.8%	-0.4%
43	Cc1ccc(NC(=O)Cn2c(=O)n(-c3ccc(C)cc3)c(=O)c3ccc(C(=O)NCc4ccccc4Cl)cc32)cc1	-8.0%	10%
44	COc1ccc(-c2noc(CCC(=O)NCc3ccc(OC)cc3OC)n2)cc1	0.6%	3.4%
45	Cc1c(C2=CCN(S(=O)(=O)c3ccc(Br)cc3)CC2)c2ccccc2n1CC(=O)N1CCCC1	-4.5%	2.5%
46	COc1ccc(-n2nnc(-c3nsc(NC(=O)c4cccc(C)c4)n3)c2C)cc1OC	-2.5%	8.9%
47	CCOC(=O)c1c(NC(=O)c2cc(OCC)c(OCC)c(OCC)c2)sc2c1CCCCC2	4.5%	1.2%
48	COc1cccc(NC(=O)Cn2cc(C(=O)c3ccc(F)cc3)c(=O)c3cc(OC)ccc32)c1	-0.6%	7.9%
49	Cc1ccc(NC(=O)c2c3c(nc4ccccc24)C(=O)N(C2CCCCC2)C3)cc1F	3.2%	-0.1%
50	COc1ccccc1N1CCN(C(=O)CCS(=O)(=O)c2cc(Br)cc3c2N(C(=O)C2CC2)CC3)CC1	-0.5%	6.0%
51	CCc1ccc(NC(=O)CC2C(=O)N(c3ccc(OC)cc3)C(=O)N2Cc2cccs2)cc1 (stereo not given)	-1.4%	1.8%
52	CCn1nnc2cc(C(=O)Nc3ccc(C)cc3Br)ccc21	-2.7%	2.3%
53	C=C1Nc2ccccc2C(=O)N1c1ccc(C(=O)N2CCN(C(=O)c3ccco3)CC2)cc1	4.5%	0.1%
54	CCCCN(Cc1cc2cc(C)ccc2[nH]c1=O)C(=O)c1cccc(Cl)c1	?	1.1%
55	CC(C)c1ccc(C2N=C(N)Nc3nc4ccccc4n32)cc1 (stereo not given)	1.3%	1.8%
56	CCOc1ccc(CNC(=O)c2ccc3nc(C(C)C)oc3c2)cc1	-2.5%	3.1%
57	CCc1c(CN2CCN(c3cccc(C)c3)C(C)C2)csc1C (stereo not given)	-0.6%	2.4%
58	O=C(CSc1nc2c([nH]c3ccccc32)c(=O)n1-c1ccccc1)c1ccccc1	-11%	0.8%
59	COc1ccc(-c2nc(CCNC(=O)c3ccccc3)cs2)cc1OC	25µM*	-0.7%
60	CC1CCCN(CCCNC(=O)Cn2ncc3c([nH]c4ccccc43)c2=O)C1 (stereo not given)	5.4%	1.0%
61	Cc1ccc(Cn2c(C(=O)Nc3cccc(Cl)c3)cc3sccc32)cc1	?	11%
62	CNC(=O)C1CCC(Cn2c(=O)c3sccc3n(Cc3cc(C)ccc3C)c2=O)CC1 (stereo not given)	1.4%	0.8%
63	CC(CCc1ccccc1)NC(=O)Cn1ncc2c3ccccc3n(Cc3ccc(F)cc3)c2c1=O (stereo not given)	-1.8%	2.7%
64	CCOc1ccc(NC(=O)CN(c2ccc(Cl)cc2C)S(=O)(=O)c2ccccc2)cc1	-2.7%	-0.6%
65	Cc1ccc(-n2ncc(C(=O)NCCN3CCc4ccccc4C3)c2C2CCN(C(=O)OC(C)(C)C)CC2)c(C)c1	-6.5%	-1.7%
66	COc1cc(OC)cc(C2=Cc3ccccc3C(CC(C)=O)N2c2ccc(-c3cncnc3)cc2)c1 (stereo not given)	?	0.4%
67	COc1ccc(CNC(=O)Cn2ccc3cc(S(=O)(=O)N4CCCC4)ccc32)c(OC)c1	1.1%	1.3%
68	COc1ccc(C(=O)NCCn2cc(SCC(=O)Nc3ccc(F)cc3)c3ccccc32)cc1	-1.5%	12%
69	CSc1nc2c(c(=O)[nH]1)C(c1cccc(F)c1F)CC(=O)N2 (stereo not given)	-0.6%	2.2%
70	COc1ccc(-c2oc3ncn4nc(-c5cccc(C)c5)nc4c3c2-c2ccc(OC)cc2)cc1	-3.6%	-2.2%
71	CC(C)=CNNC(=O)c1ccc(O)cc1	-1.9%	0.7%
72	COc1ccc(NC(=O)N2CCOc3ccc(Cl)cc32)cc1	-1.8%	1.2%
73	O=C(CSc1nnc(-c2ccc(Cl)cc2)o1)Nc1ccc(F)cc1	-1.9%	0.5%
74	CCC(Oc1ccccc1)C(=O)Nc1ccc(OCc2cc(=O)n3ccccc3n2)cc1 (stereo not given)	3.6%	-5.5%
75	Cc1cccc(-c2nc3cc(NC(=O)c4ccc(OCC(C)C)cc4)ccc3o2)c1	?	0.5%

Additional compounds follow:
entry	Molecule	ClpP mod	PINK1 expr mod
76	Cc1nc(N2C(=O)c3oc4ccccc4c(=O)c3C2c2ccccc2F)sc1C (stereo not given)	-1.3%	19%
77	Cc1ccc(S(=O)(=O)NCC2CCC(C(=O)NCCc3ccc(Cl)cc3)CC2)cc1 (stereo not given)	0.5%	0.4%
78	COC(=O)c1scc(-c2ccc(C)cc2)c1S(=O)(=O)Nc1cccc(Cl)c1C	-6.9%	0.9%
79	CN(C)CCCNC(=O)C(=O)NCC(c1ccc2c(c1)OCO2)N1CCOCC1 (stereo not given)	1.8%	-0.9%
80	CCCN1C(=O)c2[nH]nc(-c3ccccc3O)c2C1c1ccc(OCc2ccccc2)c(OC)c1 (stereo not given)	-2.5%	5.4%
81	O=C(CSc1nc2c(c(=O)[nH]1)CCCC2)Nc1ccccc1C(F)(F)F	-1.2%	0.0%
82	Cc1ccc2nc(-c3ccc(Cl)cc3)c(Cc3ccccn3)n2c1	4.8%	1.2%
83	CCOc1ccc(C2CC(=O)n3nc(-c4ccc(C)cc4)nc3S2)cc1OC (stereo not given)	-0.4%	1.7%
84	CCCOc1ccc(-c2nonc2NC(=O)c2oc3ccc(Cl)cc3c2C)cc1OCCC	0.9%	-0.1%
85	CCOc1ccc(CN2CCN(c3ncnc4sc5c(c34)CC(C)CC5)CC2)cc1 (stereo not given)	-4.0%	-0.1%
86	CN(C(=O)c1ccc2c(c1)N(Cc1ccccc1F)C(=O)c1ccccc1S2(=O)=O)C1CCCCC1	0.1%	-0.5%
87	COc1cccc(Cn2nnc3c(=O)[nH]c(C4CCCN(C(=O)c5ccc(C)cc5)C4)nc32)c1 (stereo not given)	-4.1%	-0.4%
88	CCOC(=O)c1ccc(NC(=O)C2CC(=O)N(c3ccc(C(C)C)cc3)C2)cc1 (stereo not given)	1.5%	-0.1%
89	Cc1nc2ccn(Cc3ccco3)c(=O)c2cc1C(=O)N1CCN(c2ccc(F)cc2)CC1	-3.8%	-0.3%
90	COc1ccccc1CCNC(=O)C(=O)NCC(c1ccco1)S(=O)(=O)c1ccccc1 (stereo not given)	1.0%	0.2%
91	Cc1ccc(CNC(=O)CN2C(=O)COc3ccccc32)cc1	-0.2%	-0.6%

Entries shown so far containing a CF3 group:
entry	Molecule	ClpP mod	PINK1 expr mod
32	O=C(Nc1cccc(Cl)c1Cl)c1cc2nc(-c3ccc4c(c3)OCO4)cc(C(F)(F)F)n2n1	-0.7%	2.5%
81	O=C(CSc1nc2c(c(=O)[nH]1)CCCC2)Nc1ccccc1C(F)(F)F	-1.2%	0.0%
